Screening data: PubChem BioAssay, National Center for Advancing Translational Sciences (NCATS)
CtBP-E1A blk: qHTS Assay for Inhibitors of the CtBP/E1A Interaction; AlphaScreen GST-E1A/His-CtBP binding, 1536-well; active compounds read low; control for the full effect not named in the record; activity change, % (no concentration beside the values); hit rate 0.49% among 340,000; in the data active means activity change below about -65%; inconclusive means about -30% to -65%; inactive means above about -30%; note: % is set by controls: 0 for no effect and ±100 for the full control effect
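In 5 uL wells, 23 nL compound meets equimolar GST-E1A and His-CtBP (5X stock 125 nM each) for 2 h, 37 °C. Beads (5X, 50 ug/mL) then 1 h, 37 °C, dark.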
D2 agonist: Beta-Arrestin HTS for Positive Allosteric Modulators of the Human D2 Dopamine Receptor: Agonists; D(2) dopamine receptor (Homo sapiens), P14416; DiscoveRx PathHunter D2 beta-arrestin, luminescence, 90 min; 100% = 57 uM dopamine signal; activation, % (concentration not given with the values); hit rate 0.084% among 360,000; AID 624465, 2012; in the data active = activation above about 40%; inconclusive = about 15% to 40%; inactive = below about 15%; note: compound concentration not given in the record; the text of the record calls up to 30% inactive
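Agonist mode: compounds alone added to overnight-plated D2 PathHunter cells for 90 min at 37 C, with 57 uM final dopamine (EC100) defining full response. Beta-arrestin recruitment detected by chemiluminescent reagent, read after 1 h at ambient temperature.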
PINK1 expr mod: A Quantitative High throughput Screen to Identify Chemical Modulators of PINK1 Expression. hit rate 0.2% among 410,000. AID 624263, 2012. PINK1 immunofluorescence, high-content cytometry, 24 h. Potency, µM (titrated, usually from 76.6 µM), without a hit: at the highest dose activation (PINK1 increase), usual class: activators; active = well fitted activation curve with a large enough effect; inconclusive = small, poorly fitted or top-dose-only effect; inactive = flat fitted curve, though single readings scatter; cell line not stated here;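 note: potency is the fitted concentration of half-maximal effect; % of control where 0% means no effect; nearly all actives have a fitted effect of over 65% in size; a mitochondrial uncoupler was the plate control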
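Stable cell line, 250 cells/well, 12 h attachment; compounds pinned at 5 concentrations, 24 h; CCCP control. Fixed with nuclear dye, primary antibodies 12 h at 10 degrees C, secondary plus cell stain; laser-scanning cytometer read.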
Six1-Eya2 blk: qHTS Assay for Inhibitors of the Six1/Eya2 Interaction; Homeobox protein SIX1 (Homo sapiens) + Protein phosphatase EYA2 (Homo sapiens), …; activity change, % (test concentration not listed); hit rate 0.56% among 360,000; AID 651725, 2012; AlphaScreen GST-Six1/His-Eya2 binding, biochemical; active compounds read low; control for the full effect not named in the record; in the data active = activity change below about -65%; inconclusive = about -30% to -65%; inactive = above about -30%; note: % is set by controls: 0 for no effect and ±100 for the full control effect
Target sequence (O00167 whole entry, looked up): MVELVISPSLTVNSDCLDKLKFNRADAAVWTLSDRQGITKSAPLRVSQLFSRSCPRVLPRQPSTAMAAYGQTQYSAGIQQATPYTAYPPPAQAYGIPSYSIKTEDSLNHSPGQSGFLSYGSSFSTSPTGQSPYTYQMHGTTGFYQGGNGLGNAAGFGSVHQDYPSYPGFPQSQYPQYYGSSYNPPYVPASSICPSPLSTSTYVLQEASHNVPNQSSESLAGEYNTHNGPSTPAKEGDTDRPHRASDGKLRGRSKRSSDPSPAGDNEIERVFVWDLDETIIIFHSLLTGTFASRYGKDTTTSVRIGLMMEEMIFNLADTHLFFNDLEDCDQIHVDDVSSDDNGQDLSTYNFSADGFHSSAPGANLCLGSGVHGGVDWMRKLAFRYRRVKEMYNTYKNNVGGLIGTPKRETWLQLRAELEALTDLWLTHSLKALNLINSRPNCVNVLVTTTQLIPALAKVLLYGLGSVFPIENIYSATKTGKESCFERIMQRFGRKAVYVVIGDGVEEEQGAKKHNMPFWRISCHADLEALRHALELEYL
Target sequence (Q15475 whole entry, looked up): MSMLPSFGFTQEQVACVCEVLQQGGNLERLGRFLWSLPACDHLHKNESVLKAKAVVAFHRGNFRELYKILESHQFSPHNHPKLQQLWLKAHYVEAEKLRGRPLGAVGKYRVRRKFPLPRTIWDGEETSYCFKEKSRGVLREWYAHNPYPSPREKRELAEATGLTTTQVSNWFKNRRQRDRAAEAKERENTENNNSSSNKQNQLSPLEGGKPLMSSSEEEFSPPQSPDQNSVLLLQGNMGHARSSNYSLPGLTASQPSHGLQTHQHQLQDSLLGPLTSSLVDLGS
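Homogeneous AlphaScreen proximity assay pairing GST-Six1 with His-tagged Eya2 (added as 5X mix: 250 nM and 500 nM) in 50 mM Tris pH 8.0, 300 mM NaCl, 1 mM TCEP. Glutathione donor and nickel acceptor beads; 1 h, 37 °C, dark.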
TRPML1 ag: qHTS for Agonists of the Human Mucolipin Transient Receptor Potential 1 (TRPML1); Mucolipin-1 (Homo sapiens), Q9GZU1; TRPML1-expressing cells, Ca2+ dye fluorescence, FDSS; host cell line not named in the record; reference of the full effect not given here; activation, % (concentration not given with the values); hit rate 0.12% among 410,000; AID 624414, 2012; in the data active = activation above about 50%; inconclusive = about 30% to 50%; inactive = below about 30%; note: 0% is about no effect; the text of the record puts the active cut at 80%
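Calcium fluorescence on an FDSS kinetic reader gave the read-out. Tet-induced TRPML1-DL cells were plated overnight, dye-loaded (Ca8 with quencher, 45-90 min, room temperature, dark), then read 110 s after compound addition, and again 110 s after 4uM final 54-4 (EC80).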
TRPML1 inh: qHTS for Inhibitors of the Human Mucolipin Transient Receptor Potential 1 (TRPML1); Mucolipin-1 (Homo sapiens), Q9GZU1; TRPML1-inducible cells, Ca2+ dye fluorescence, FDSS; active compounds read low; inhibition of EC80 agonist-evoked calcium signal; activity change, negative = inhibition, % (test concentration not listed); hit rate 0.02% among 390,000; AID 624415, 2012; in the data active means activity change below about -50%; inconclusive means about -30% to -50%; inactive means above about -30%;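 note: stimulus is agonist 54-4 at its EC80 concentration; % is set by controls: 0 for no effect and ±100 for the full control effect; compound concentration not given in the record; the text of the record puts the active cut at -80%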
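Tet-induced TRPML1-DL cells loaded with Ca8 no-wash calcium dye were read kinetically on FDSS. Compound addition was followed by EC80 agonist 54-4 (4 uM final); inhibition was read over 110 s.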
* marks the source's active call; other numbers are inactive results; ? = inconclusive; · = no result given; & = joins results of further samples; [ ] = another dose, or the depositor's remark.

Sample of the layout:
1) COc1ccc(N=C2NN=C(c3c(C)[nH]c4ccccc34)CS2)cc1
2) Cc1nc2ccc(N)nc2nc1C
3) Cc1ccc(S(=O)(=O)c2ccc(Cl)cc2)cc1S(=O)(=O)NC(C(=O)O)C(C)C (centres undefined)
4) Cn1ncc2c(Nc3cccc([N+](=O)[O-])c3)ncnc21

Screen / compound no.	1	2	3	4
CtBP-E1A blk	-19.7	-3.0	2.2	·
D2 agonist	12.7	0.7	-3.4	-0.8
PINK1 expr mod	?	2.5%	-1.5%	2.6%
Six1-Eya2 blk	?	-2.9	8.1	-3.8
TRPML1 ag	-0.9	0.1	-0.2	0.7
TRPML1 inh	-0.8	-20.7	6.8	8.1

This part in full, from the first entry:
1) COc1ccc(N=C2NN=C(c3c(C)[nH]c4ccccc34)CS2)cc1
2) Cc1nc2ccc(N)nc2nc1C
3) Cc1ccc(S(=O)(=O)c2ccc(Cl)cc2)cc1S(=O)(=O)NC(C(=O)O)C(C)C (centres undefined)
4) Cn1ncc2c(Nc3cccc([N+](=O)[O-])c3)ncnc21
5) CC(C)c1nc2c(s1)CCc1onc(-c3ccc(Cl)cc3)c1-2
6) COc1ccc(CCNC(=O)c2cccc(S(=O)(=O)N3CCCC3)c2)cc1
7) COc1ccc(S(=O)(=O)NCc2ccc(F)cc2)cc1OC
8) NN(CCO)C(=S)Nc1ccc(Cl)cc1
9) CCOC(=O)c1c(NC(=O)COC(=O)c2c(C)noc2C)sc2c1CCC2
10) Cn1c(NC(=O)c2ccc3c(c2)OCO3)cc(=O)n(C)c1=O

Screen / compound no.	1	2	3	4	5	6	7	8	9	10
CtBP-E1A blk	-19.7	-3.0	2.2	·	8.5	5.8	8.5	-3.4	5.3	0.0
D2 agonist	12.7	0.7	-3.4	-0.8	-2.0	-1.8	2.1	6.8	-0.8	-3.3
PINK1 expr mod	?	2.5%	-1.5%	2.6%	4.1%	5.6%	-1.3%	0.2%	4.1%	5.2%
Six1-Eya2 blk	?	-2.9	8.1	-3.8	3.6	-6.7	10.7	0.2	4.3	7.3
TRPML1 ag	-0.9	0.1	-0.2	0.7	0.3	0.4	-0.3	-0.1	-0.1	-0.5
TRPML1 inh	-0.8	-20.7	6.8	8.1	19.7	10.4	-24.4	14.8	-10.6	-0.2

11) O=C(N/N=C/c1cccc2ccccc12)c1cccc(F)c1
12) NC(=O)C1CCN(C2CC(=O)N(Cc3cccs3)C2=O)CC1 (centres undefined)
13) CCN1CCN(C(c2cccs2)C(C)NC(=O)C(C)C)CC1 (centres undefined)
14) Cc1cc(NC(=O)c2cc(C(C)C)on2)nn1Cc1ccc(Cl)cc1
15) CCCCNC(=O)C1CCN(S(=O)(=O)N2CCCCCC2)CC1
16) O=C(c1cnn(C(=O)c2cccc(S(=O)(=O)N3CCOCC3)c2)c1)c1ccccc1O
17) COc1ccc(-c2c(C(C)=O)c(C)nc3sc4c(=N)n(N)cnc4c23)cc1
18) Cc1cc(SCC(=O)Nc2ccc3[nH]c(=O)[nH]c3c2)nc2ccccc12
19) Cc1ccc(CNC(C)(C)CO)cc1
20) COc1c(C)cc(S(=O)(=O)N2CCCC2)c(C)c1C

Screen / compound no.	11	12	13	14	15	16	17	18	19	20
CtBP-E1A blk	-0.8	11.2	-2.7	9.8	12.1	3.4	8.2	0.0	1.2	8.8
D2 agonist	0.3	-0.1	4.9	0.3	-3.6	3.2	-2.9	3.9	-3.1	0.2
PINK1 expr mod	2.4%	12.6%[38.3 µM]	0.2%	1.6%	-1.3%	-1.0%	-1.7%	6.2%	-2.0%	12.0%[38.3 µM]
Six1-Eya2 blk	-0.9	0.1	6.2	7.5	2.4	3.3	-5.4	0.0	12.4	9.6
TRPML1 ag	5.1	0.3	-0.8	3.2	-0.1	0.8	0.0	-0.6	0.4	0.9
TRPML1 inh	1.8	-11.5	-1.8	30.4	-2.6	12.0	28.8	-2.9	-19.5	7.1

21) Cn1cc([N+](=O)[O-])c(C(=O)Nc2sc3c(c2C#N)CCC3)n1
22) O=C(NCC1CC1)c1onc(CSc2ccncc2)c1C(=O)NCC1CC1
23) O=C(Oc1coc(CSc2ncccn2)cc1=O)c1ccc(Br)o1
24) O=C(c1ccco1)N1CCN(C(=S)Nc2ccc(F)c(Cl)c2)CC1
25) COc1cccc(-c2cc(C(=O)N3CCN(c4ccc(F)cc4)CC3)no2)c1
26) Cc1ccc(NC(=O)C2C3CCC(O3)C2C(=O)O)c(Br)c1 (centres undefined)
27) COC(=O)c1cc(NC(=O)CC2SCCNC2=O)cc(C(=O)OC)c1 (centres undefined)
28) COc1ccc(Cl)cc1S(=O)(=O)n1ccnc1
29) O=C(NCCCn1ccnc1)/C(=C/c1ccccc1)NC(=O)c1ccccc1
30) CCc1ccc(S(=O)(=O)Nc2nccs2)cc1

Screen / compound no.	21	22	23	24	25	26	27	28	29	30
CtBP-E1A blk	·	-26.7	15.1	3.2	-11.2	7.3	-2.3	7.6	14.1	-2.7
D2 agonist	-3.6	0.1	-4.1	-1.2	1.1	-2.6	4.0	-4.7	-2.3	3.8
PINK1 expr mod	6.8%	-1.5%	2.4%	-1.1%	10.7%&2.1%	1.7%	-3.3%	1.0%	3.2%	0.3%
Six1-Eya2 blk	-5.5	2.6	-10.6	3.4	-4.9	4.0	2.4	1.5	-2.3	-20.1
TRPML1 ag	-0.5	-0.2	-0.2	-0.7	1.1&-0.6	0.2	0.9	-0.1	-0.2	0.8
TRPML1 inh	0.7	5.2	0.8	30.1	39.7&6.8	-2.9	-19.8	31.1	11.0	-3.3

Values by screen from above:
Nos. 1 to 5 in PINK1 expr mod read ?, 2.5%, -1.5%, 2.6%, 4.1%
Nos. 1 to 5 in TRPML1 inh read -0.8, -20.7, 6.8, 8.1, 19.7
Nos. 1 to 5 in Six1-Eya2 blk read ?, -2.9, 8.1, -3.8, 3.6

Additional structures follow:
31) Cc1cccnc1CN1CCN(C(=O)c2cc(COc3ccc4ncccc4c3)on2)CC1
32) CCOc1ccc(NC(=O)CSc2nnc(Cc3ccccc3)c(=O)n2N)cc1
33) CCN(CC)S(=O)(=O)c1cccc(NC(=O)c2ccc(-n3nc(C)cc3C)cc2)c1
34) CCn1nnc(NC(=O)COc2ccc([N+](=O)[O-])cc2)n1
35) O=C(N/N=C/c1c(O)n(-c2ccccc2Cl)c(=O)c2ccccc12)C1COc2ccccc2O1 (centres undefined)
36) COC(=O)c1ccccc1NC(=O)c1cc2c(-c3ccc(OC)c(OC)c3)nn(C)c2s1
37) COc1ccc(N2CCN(C(=O)Cc3ccc(-n4c(=O)[nH]c5ccccc5c4=O)cc3)CC2)cc1
38) O=C(c1cnccn1)N(Cc1ccco1)C1(C(=O)NC2CCCC2)CCCCC1
39) CCCCC(CC)CNC(=O)C(=O)C1C(=O)Nc2ccccc21 (centres undefined)
40) Fc1ccc(-c2csc3ncnc(N4CCN(c5ccccc5)CC4)c23)cc1

Screen / compound no.	31	32	33	34	35	36	37	38	39	40
CtBP-E1A blk	1.0	4.5	-70.3*	7.0	-19.9	·	-2.8	9.4	13.8	-26.3
D2 agonist	-0.8	-4.2	4.0	0.5	-2.1	·	3.0	-0.1	1.4	1.6
PINK1 expr mod	1.1%	22.8%	0.4%	-0.1%	-2.2%	0.4%	-1.6%	-2.9%	4.8%	0.9%
Six1-Eya2 blk	3.0	24.1	-5.8	6.0	-17.7	·	-5.4	5.4	-2.9	?
TRPML1 ag	0.9	1.3	3.7	-0.6	2.6	-1.0	3.7	0.0	1.0	0.1
TRPML1 inh	14.4	-16.7	57.8	-4.2	2.5	30.8	-9.4	6.4	-4.6	2.0

41) CC1C(=O)N(Cc2cn(CC3CCCCC3)nn2)CCS(=O)(=O)N1Cc1ccc(-c2ccccc2)cc1 (centres undefined)
42) CN1CCC(OC(=O)c2cccc(Br)c2)CC1
43) CCOc1c(CNc2nnnn2C)cccc1OC
44) CN(C)c1ccc(C(CNS(=O)(=O)c2ccc3ccccc3c2)N2CCOCC2)cc1 (centres undefined)
45) COc1ccc2oc(=O)c(C(=O)NCc3ccc4c(c3)OCO4)cc2c1
46) Cn1c(NCc2ccco2)nc2c1c(=O)n(Cc1ccc(Cl)cc1)c(=O)n2C
47) COc1nc(-c2ccccc2)ccc1-c1noc(-c2cccnc2)n1
48) Cc1c(Cl)c(C(F)(F)F)nn1CC(=O)NCc1ccccc1
49) CC(=O)Nc1cccc(-c2ccnc3c2CC(C)(C(=O)NCc2ccccc2)O3)c1 (centres undefined)
50) O=C(COC(=O)/C=C/c1ccccc1)NCc1ccccc1Cl
51) Cc1cccc(NC(=S)NCC(c2cccnc2)N(C)C)c1 (centres undefined)
52) Cc1ccc(S(=O)(=O)CCC(=O)Nc2nc(-c3ccncc3)cs2)cc1

Screen / compound no.	41	42	43	44	45	46	47	48	49	50	51	52
CtBP-E1A blk	-3.9	0.0	4.5	-5.7	6.6	-5.1	9.4	55.2	1.0	0.7	1.4	·
D2 agonist	1.7	-1.8	-6.5	-1.0	-2.9	0.3	-2.9	0.9	3.8	-1.5	-0.2	7.1
PINK1 expr mod	0.9%	·	3.6%	0.3%	22.8%	-0.6%	?	2.2%[38.3 µM]	7.4%	4.7%	-0.8%	2.3%
Six1-Eya2 blk	-5.4	13.9	14.0	-20.2	-0.7	-1.8	4.0	5.8	-3.3	3.4	5.9	-4.6
TRPML1 ag	·	-0.1	-0.1	-0.1	-0.4	0.0	-0.1	0.0	-0.7	2.3	1.0	3.3
TRPML1 inh	·	-14.3	-13.1	11.0	20.3	-24.7	7.3	8.7	·	2.3	1.8	-17.4
